VDR inh – blocks the human vitamin D receptor; P11473; VDR-SRC2-3 peptide fluorescence polarization, 2 h; Potency, µM, for inactives: max response, negative = inhibition, usual class: inhibitors; actives 0.93% (n = 400,000); active means well fitted inhibition curve with a large enough effect; inconclusive means small, poorly fitted or top-dose-only effect, or another doubt; inactive means no such curve, though single readings can be large or run the other way; further: series mostly up to about 120 µM
Target sequence (P11473 whole entry, looked up): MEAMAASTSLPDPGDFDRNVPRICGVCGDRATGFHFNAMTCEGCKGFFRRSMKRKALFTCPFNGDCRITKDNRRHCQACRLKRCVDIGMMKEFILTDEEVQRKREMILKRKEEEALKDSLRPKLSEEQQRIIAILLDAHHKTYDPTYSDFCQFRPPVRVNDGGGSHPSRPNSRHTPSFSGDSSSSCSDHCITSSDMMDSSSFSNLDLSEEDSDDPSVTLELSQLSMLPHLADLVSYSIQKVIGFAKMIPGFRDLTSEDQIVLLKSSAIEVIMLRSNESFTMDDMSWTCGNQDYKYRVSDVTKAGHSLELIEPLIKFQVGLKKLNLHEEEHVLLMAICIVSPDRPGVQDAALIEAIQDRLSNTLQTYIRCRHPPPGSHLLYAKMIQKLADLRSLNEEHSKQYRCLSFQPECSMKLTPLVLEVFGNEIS
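FP read-out; VDR + SRC2-3 coactivator peptide; 23 nl compound by pintool; 2 h RT incubation; reagents held at 4 deg C, protected from light.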
Numbers without * were called inactive; ? = inconclusive; & = joins results of further samples. On the % scale 0 is the no-effect control and ±100 the full control effect; potency means the concentration at half of the fitted maximal effect.

VDR inh	Molecule
4%	COc1cccc(NC(=O)c2c(C(=O)Nc3ccccc3)sc3nc(C)cc(=O)n23)c1
-18%	CN(C)CCNC(=O)Cn1ccc2cc(S(=O)(=O)N3CCCCC3)ccc21
-2%	CC(Oc1ccc(C(C)(C)C)cc1)c1ccnc2nc(/N=C/N(C)C)nn12 (configuration not stated)
4%	OCCC1CN(Cc2cccn2-c2cccnc2)CCN1Cc1ccc(F)cc1 (configuration not stated)
18%	CN(C)CCCC1(O)c2ccccc2CCc2ccccc21
-7%	COc1ccc(-c2csc(N(CCc3ccc(OC)c(OC)c3)C(=O)COc3ccccc3)n2)cc1
0%	CCc1c(C)nc(SCC(=O)NNC(=O)Cc2ccc(OC)cc2)[nH]c1=O
-8%	CC(CN1CCOCC1)OC(=O)CCc1ccccc1 (configuration not stated)
1%	COc1ccc2oc(=O)cc(CN3CCN(C(=O)c4ccccc4)CC3)c2c1
5%	O=C(Cn1c(SCC(=O)N2CCCc3ccccc32)nc2ccccc21)N1CCCC1
2%	O=C(NCc1ccc2c(c1)OCO2)c1cccc(F)c1
-1%	Cc1c(C)c2ccc(OC(C)C(=O)NCCc3c[nH]c4ccccc34)cc2oc1=O (configuration not stated)
-8%	COCC1CCCCN1C(=O)c1cccc(OC2CCN(C(=O)C3CC3)CC2)c1 (configuration not stated)
10%	CCCCN(CCO)c1ncnc2sc(-c3ccccc3)cc12
-3%	CCOC(=O)c1cc(-c2ccc(F)cc2)n(CCC(=O)NC2CCN(Cc3ccccc3)CC2)c1C
0%	CN(C)CCN(C(=O)c1ccc2c(c1)OCCO2)c1nc2c(Cl)cccc2s1
-14%	Cc1cc(C)n2nc(S(=O)(=O)NC3CCCCC3)nc2n1
0%	O=C1CSC(c2cn(-c3ccccc3)nc2-c2cc3ccccc3oc2=O)N1Cc1ccco1 (configuration not stated)
4%	Cc1ccc(N(Cc2ccccc2F)S(C)(=O)=O)c(C)c1
3%	COc1ccc(CN(C(=O)c2oc3ccccc3c2C)C2CCS(=O)(=O)C2)cc1OC (configuration not stated)
15%	Cc1nc2ccccc2n1Cc1ccccc1
-9%	CNC(=O)c1cc(NC(=O)CCn2nc(-c3ccc(C)cc3)c3ccccc3c2=O)ccc1OC
8%	O=C(c1cc(S(=O)(=O)N2CCCCC2)ccc1F)N1CCCCC1
-7%	NC1=NC(=O)/C(=C/c2ccc(Br)cc2)S1
9%	O=C(O)CCc1nc(-c2ccccc2)no1
14%&7%	CC(C)CC(=O)Nc1nnc(S(=O)(=O)N(C)c2ccc(Cl)cc2)s1
-4%&4%	OC[C@H]1O[C@@H](n2cnc3c(NC4CCCCC4)ncnc32)[C@H](O)[C@@H]1O
-13%	O=C(N/C(=C/c1ccccc1)C(=O)N1CCOCC1)c1ccc([N+](=O)[O-])cc1
-11%	Clc1ccccc1Sc1ccc(-c2ccccn2)s1
0%	CCN1C(=O)CC(NCc2ccc(S(N)(=O)=O)cc2)C1=O (configuration not stated)
6%	COC(=O)C(C(=O)OC)=C(/C=C/N(C)C)N(C)C
-9%	Cc1ccc(C(=O)/C=C2\NCCNC2=O)cc1
-12%	COc1ccc(NC(=O)c2nnn(Cc3ccc(SC)cc3)c2N)c(OC)c1
0%	Cc1ccc(NC(=O)Cn2nc(C(F)(F)F)c3c2CCCC3)cc1C
-4%	COc1ccc(Cn2cc(S(=O)(=O)c3ccc(Cl)cc3)c(=O)c3cc4c(cc32)OCO4)cc1
14%	COc1ccccc1N1CCN(C2CCC(C)CC2)CC1 (configuration not stated)
3%	CCCCc1nnc(NC(=O)CS(=O)(=O)Cc2ccccc2)s1
-3%	Cc1cc(N(C)/N=C/c2ccccc2)nc(-c2ccccc2O)n1
-8%	S=C(NCCc1ccccc1)Nc1nccs1
2%	COc1ccc(S(=O)(=O)N(C)C[C@H]2Oc3c(cccc3N(C)C)C(=O)N([C@H](C)CO)C[C@@H]2C)cc1

By substructure: those above containing an NH in an aromatic ring (2)
VDR inh	Molecule
0%	CCc1c(C)nc(SCC(=O)NNC(=O)Cc2ccc(OC)cc2)[nH]c1=O
-1%	Cc1c(C)c2ccc(OC(C)C(=O)NCCc3c[nH]c4ccccc34)cc2oc1=O (configuration not stated)

Remaining list, next part
VDR inh	Molecule
-11%	O=C(NC(=S)Nc1ccc(Br)cc1F)C1CCCCC1
-8%	Cc1ccc(/C=c2\s/c(=C(/C#N)C(=O)N3CCCC3)n(Cc3ccco3)c2=O)s1
-4%	O=C(NN/C(=N/S(=O)(=O)c1ccc(Cl)cc1)c1ccccc1)c1ccc(O)cc1
-3%	CCc1ccc(/C=C2\SC(=S)N(CCC(=O)Nc3cc(C)on3)C2=O)cc1
-7%	CCOc1nc(NC(C)C)nc(NC(C)C)n1
-6%	COC(=O)COc1ccc2c(=O)c(Oc3ccccc3)c(C)oc2c1
-24%	CCc1noc(C)c1C(=O)Nc1sc(C(=O)N(C)C)c(C)c1C#N
-20%	COc1ccc(-c2cc(C(F)(F)F)nc(SCc3cccc(C(=O)O)c3)n2)cc1
-3%	CC(=O)Nc1ccc(C2(c3ccc(NC(C)=O)cc3)NC(=O)c3ccccc32)cc1
5%	O=C(Nc1cc(Cl)ccc1N1CCCCC1)c1cccs1
-5%	O=C(Nc1cc(S(=O)(=O)N2CCOCC2)ccc1N1CCCC1)C1COc2ccccc2O1 (configuration not stated)
-24%	COc1ccc(C)cc1NS(=O)(=O)c1cn(C)c(=O)n(C)c1=O
3%	CCOC(=O)c1cnn(-c2cc(C)nc3c(-c4ccccc4)c(C)nn23)c1N
-29%	Cc1cc(S(=O)(=O)NCc2ccco2)c(C)cc1Cl
-7%	CCc1ccc(C2=NNC(=Nc3c(C)n(C)n(-c4ccccc4)c3=O)SC2)cc1
-11%	COC(=O)CCCNC(=O)c1ccc2oc(CCCc3ccccc3)nc2c1
0%	COc1ccc(S(=O)(=O)Nc2nc3c(s2)CCCC3)cc1
5%	CCC1CN(C)C2Cc3c([nH]c4ccccc34)C(=O)CC1C2C(=O)OC (configuration not stated)
-3%	COc1ccc(C2C(C#N)=C(N)Oc3c2oc(CO)cc3=O)c(OC)c1OC (configuration not stated)
2%	NCCc1nnc(SCC(=O)Nc2ccc(Br)cc2)o1
-3%	COc1ccc(CNC(=O)C(=O)NC2CCC(C)CC2)cc1 (configuration not stated)
6%	CCCC(=O)Nc1ccc(N2CCN(C(=O)c3cccs3)CC2)cc1
-3%	CC(=O)C1=C(O)C(=O)N(Cc2ccccc2)C1c1cccc([N+](=O)[O-])c1 (configuration not stated)
-4%	CCCCOc1ccccc1NC(=O)CSc1nnnn1C(C)(C)C
9%	N/C(=N\OC(=O)CCCC(=O)O)c1ncc(C(F)(F)F)cc1Cl
4%	COC(=O)CSc1nc(C)cc(N2CCOCC2)n1
4%&5%	O=S(=O)(Nc1cccc2ccccc12)c1ccccc1
5%	Cc1c(NS(=O)(=O)c2cc(C(=O)OCC(=O)N3CCC(C)CC3)ccc2Cl)c(=O)n(-c2ccccc2)n1C
-20%	O=C(O)c1cccc(-n2cccc2/C=C2\NC(=O)N(Cc3ccc(F)cc3)C2=O)c1
-2%	COCCCn1c(=N)c(C(=O)NCc2ccc3c(c2)OCO3)cc2c(=O)n3cccc(C)c3nc21
?	CN1c2ccsc2C(O)=C(C(=S)Nc2ccc(F)c(Cl)c2)S1(=O)=O
-2%	CC(C)CCCC(C)NC(C)C (configuration not stated)
-6%	COc1cc(NC(=O)c2cccc([N+](=O)[O-])c2C)ccc1NC(=O)c1ccco1
-18%	CC1(c2ccc(OCC#N)cc2)C=C(c2ccc(OCC#N)cc2)n2nc(C(F)(F)F)nc2N1 (configuration not stated)
22%	COc1ccc(NC(=O)CSc2nnc(C3CC3)n2C)cc1S(=O)(=O)N1CCOCC1
17%	COc1ccc(Nc2cc(C)nc3ccc(OC)cc23)cc1
12%	Cn1cc(Cl)c(C(=O)OCC(=O)Nc2cccc(Cl)c2)n1
-5%	Cc1ccc(C)c(NC(=O)c2ccc3nccnc3c2)c1
-13%	COc1ccc(CC(=O)N2CCN=C2SCc2cccc([N+](=O)[O-])c2)cc1
-12%	CC(=O)c1cccc(CN2CCN(Cc3ccc(F)cc3)C(CCO)C2)c1 (configuration not stated)

In another format: 4 of the compounds above.
> COc1ccc(NC(=O)CSc2nnc(C3CC3)n2C)cc1S(=O)(=O)N1CCOCC1
- VDR inh: 22%

> COc1ccc(Nc2cc(C)nc3ccc(OC)cc23)cc1
- VDR inh: 17%

> Cn1cc(Cl)c(C(=O)OCC(=O)Nc2cccc(Cl)c2)n1
- VDR inh: 12%

> Cc1ccc(C)c(NC(=O)c2ccc3nccnc3c2)c1
- VDR inh: -5%

Next section
VDR inh	Molecule
0%	O=C(COC(=O)CCc1nc2ccccc2c(=O)[nH]1)NCc1ccc(F)cc1
1%	COc1ccccc1CC(=O)Nc1ccc(O)cc1C(=O)O
-5%	NS(=O)(=O)c1ccc(CNC(=O)c2ccccn2)cc1
4%	COc1ccccc1NC(=O)Nc1c(C)n(C)n(-c2ccccc2)c1=O
-3%	Cc1[nH]c2ccccc2c1/C=N/NC(=O)c1ccc(N)cc1
5%	C/C=C/c1ccc(OCCCN2C(=O)NC(C)(C)C2=O)c(OC)c1
-5%	N=c1n(CCN2CCCCC2)c2ccccc2n1CC(=O)c1ccc(Cl)c(Cl)c1
-11%	Cc1noc(C)c1C(=O)OCC(=O)N1CCc2ccccc21
15%	COc1ccccc1NC(=O)COC(=O)CCc1ccc(S(=O)(=O)N2CCOCC2)cc1
-13%	CCn1c(=O)cc(OCC(=O)Nc2cc(OC)c(OC)c(OC)c2)c2ccccc21
4%	O=C(CSc1ccccc1C(=O)O)NC1CCCCCCC1
12%	CCC(C)[C@H](NC(=O)N1CCn2c1nc1ccccc12)C(=O)NCc1ccccc1 (some centres not stated)
-5%	COc1ccc(C2=NOC3(CC(=O)N(c4ccc(C)cc4)C3=O)C2)c(OC)c1 (configuration not stated)
-10%	O=C(O)c1ccc(Nc2ncc([N+](=O)[O-])cc2[N+](=O)[O-])cc1
5%	CCC(C)NS(=O)(=O)c1ccc(S(=O)(=O)N(CC(=O)Nc2ccccc2)CC2CCCO2)cc1 (configuration not stated)
-2%	CC1CC(C)CN(S(=O)(=O)N2CCC(C(=O)NCCC3=CCCCC3)CC2)C1 (configuration not stated)
12%	O=C(Cn1nnc2ccccc21)Nc1ccc([N+](=O)[O-])cc1
2%	O=c1c2cc3c(cc2n(Cc2cccc(Cl)c2)c(=O)n1Cc1nc(-c2ccccc2)no1)OCO3
-19%	Cc1cccc(OCC(=O)NCC(c2cccs2)N2CCOCC2)c1 (configuration not stated)
16%	COc1ccc(-c2ccnc(SCC(=O)N3CCN(c4ccccc4)CC3)n2)cc1
-13%	O=c1c(Cl)c(N2CCNCC2)cnn1C12CC3CC(CC(C3)C1)C2
-19%	COc1ccccc1CNC(=O)c1ccc2c(=O)n(CC3CCCO3)c(=S)[nH]c2c1 (configuration not stated)
-4%	CCN(CC)CCN1CCn2c3c(c4cc(C)ccc42)CCCC31 (configuration not stated)
-2%	CC(=O)NC1=NC(=O)C(C)S1 (configuration not stated)
3%	COc1cc(NC(=O)CCn2c(=O)[nH]c3ccsc3c2=O)cc(OC)c1
8%	COc1ccc(-c2nc(N)n(C(=O)c3ccc(C)cc3)n2)cc1
12%	Cn1cc(S(=O)(=O)N2CCOCC2)cc1C(=O)Nc1ccc(Cl)c(C(F)(F)F)c1
-2%	COC(=O)[C@H](Cc1ccccc1)NC(=O)NCCC1=CCCCC1
-8%	Cc1cc(F)ccc1NCc1ccccc1[N+](=O)[O-]
-12%	CCOC(=O)c1c(-c2ccccc2)csc1NC(=O)c1cccc(N2C(=O)CCC2=O)c1

A section taken from the entries so far, for reference:
VDR inh	Molecule
-2%	COC(=O)[C@H](Cc1ccccc1)NC(=O)NCCC1=CCCCC1
-8%	Cc1cc(F)ccc1NCc1ccccc1[N+](=O)[O-]
-12%	CCOC(=O)c1c(-c2ccccc2)csc1NC(=O)c1cccc(N2C(=O)CCC2=O)c1

Next section:
VDR inh	Molecule
-9%	COc1cc2c(cc1OC)C1(CCCCC1)CN(C)C2
30%	COc1ccc(/C=C(\NC(=O)c2ccccc2)C(=O)NCCN2CCOCC2)cc1
-9%	COc1cc(NS(=O)(=O)c2ccc3c(c2)CC(=O)N3)cc(OC)c1OC
1%	CC(C)N(C(=O)CO/N=C/c1cccc([N+](=O)[O-])c1)C(C)C
-4%	O=C(Nc1nccs1)C1CCN(S(=O)(=O)c2cnc[nH]2)CC1
-25%	Cc1c(S(=O)(=O)NC2CCCCCC2)c(=O)n(C)c(=O)n1C
-5%	Nn1c(SCc2ccccc2F)nnc1-c1ccncc1
2%	NS(=O)(=O)c1ccc(CCNC(=O)[C@@H]2CCCN2S(=O)(=O)c2ccccc2F)cc1
-14%	O=c1ccn([C@@H]2O[C@H](CNS(=O)(=O)c3csc(-c4ccno4)c3)[C@@H](O)[C@H]2O)c(=O)[nH]1
14%	O=C(Nc1c2c(nn1-c1ccc([N+](=O)[O-])cc1)CS(=O)(=O)C2)c1cccs1
-8%	CC1CC2=C(C(=O)O1)C(C)Nc1ccccc1N2 (configuration not stated)
1%	NS(=O)(=O)c1ccc(CNC(=O)CCSCCC(=O)NCc2ccc(S(N)(=O)=O)cc2)cc1
19%	CCN(CC)c1ccc(NC(=O)c2cccc(F)c2)c(C)c1
5%	CC(C)N(C(=O)C[n+]1ccsc1N)c1ccccc1
4%	Cc1csc(=O)n1CCC(=O)OCC(=O)NCc1ccc(F)cc1
6%	O=C(O)CCC(=O)Nc1cccc(C(=O)Nc2cccc(Cl)c2)c1
-2%	CN(CC(=O)Nc1ccccc1Cl)CC(=O)Nc1ccccc1[N+](=O)[O-]

Screening data deposited in PubChem BioAssay by National Center for Advancing Translational Sciences (NCATS).

This is a subset; count on the stated rates, not on these rows.
